D2 PAM: Beta-Arrestin HTS for Positive Allosteric Modulators of the Human D2 Dopamine Receptor: Potentiators; D(2) dopamine receptor (Homo sapiens), P14416; DiscoveRx D2 beta-arrestin cells, luminescence, 90 min; 100% = 57 uM dopamine signal; potentiation, % (no concentration beside the values); hit rate 0.23% among 360,000; AID 624464, 2012; active = potentiation of 50% or more; inconclusive = 30% to 50%; inactive = 30% or less;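 note: compound concentration not given in the record; tested on top of an EC20 dose of dopamine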
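PathHunter beta-arrestin assay in DiscoveRx D2 cells. Compounds were added with an EC20 of dopamine (50 nM final) for 90 min at 37 deg C. Luminescence was read 1 h after detection reagent, with 57 uM dopamine as the EC100 control.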
D2 agonist: Beta-Arrestin HTS for Positive Allosteric Modulators of the Human D2 Dopamine Receptor: Agonists | D(2) dopamine receptor (Homo sapiens), P14416 | DiscoveRx PathHunter D2 beta-arrestin, luminescence, 90 min; 100% = 57 uM dopamine signal | activation, % (no concentration beside the values) | hit rate 0.084% among 360,000 | AID 624465, 2012; in the data active = activation above about 40%; inconclusive = about 15% to 40%; inactive = below about 15%; note: compound concentration not given in the record; the text of the record calls up to 30% inactive
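Agonist mode: compounds alone added to overnight-plated D2 PathHunter cells for 90 min at 37 C, with 57 uM final dopamine (EC100) defining full response. Beta-arrestin recruitment detected by chemiluminescent reagent, read after 1 h at ambient temperature.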
Sfp inh: qHTS Assay for Inhibitors of Bacillus subtilis Sfp phosphopantetheinyl transferase (PPTase) | AID 1490, 2009 | hit rate 3.5% among 310,000 | Biochemical Sfp PPTase activity, qHTS | 4'-phosphopantetheinyl transferase ffp (Bacillus subtilis), Q9F4F7 | Potency, µM, for the others: max response, negative = inhibition, usual class: inhibitors; active = well fitted inhibition curve with a large enough effect; inconclusive = small, poorly fitted or top-dose-only effect, or another doubt; inactive = no such curve, though single readings can be large or run the other way;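 note: the enzyme is Sfp with the accession as filed and its product quenches rhodamine fluorescence; potency is the fitted concentration of half-maximal effect; 0% = enzyme reaction without inhibitor and -100% = no enzyme wells; top concentration of the series not given in the record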
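Compounds were incubated with enzyme (final 15 nM) for 15 min at room temperature before substrate addition started the reaction. Fluorescence at 525 nm excitation, 598 nm emission was recorded immediately and after 30 minutes.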
TRPV1 potentiator: HTS Assay for Compounds that Act as Potentiators of the Vanilloid Receptor 1 | hit rate 0.02% among 320,000 | TRPV1-expressing cells, Fluo-8 calcium influx, capsaicin EC20 potentiation; host cell line not named in the record; control for the full effect not named in the record | Transient receptor potential cation channel subfamily V member 1 (Homo sapiens), Q8NER1 | potentiation, % at 8.33 µM; active means potentiation above 80%; inconclusive means 30% to 80%; inactive means below 30%; note: 0% is about no effect
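Cells expressing TRPV1 were dye-loaded with Fluo-8 and read kinetically: 10 s baseline, 3 min after compound (agonist portion), then 2 min after EC20 capsaicin (allosteric enhancer portion). Calcium-bound dye fluorescence at 480/520 nm.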
CtBP-E1A blk: qHTS Assay for Inhibitors of the CtBP/E1A Interaction | activity change, % (test concentration not listed) | CtBP / adenovirus E1A interaction (AlphaScreen) | AlphaScreen GST-E1A/His-CtBP binding, 1536-well; stronger effect = lower value; control for the full effect not named in the record | AID 651724, 2012 | hit rate 0.49% among 340,000; in the data active means activity change below about -65%; inconclusive means about -30% to -65%; inactive means above about -30%; note: % is set by controls: 0 for no effect and ±100 for the full control effect; compound concentration not given in the record
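GST-E1A and His-tagged CtBP (125 nM each as 5X stock) were preincubated with pin-transferred compound for 2 h at 37 °C in the dark, then glutathione donor and nickel acceptor beads were added for 1 h before AlphaScreen reading.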
PINK1 modulator: A Quantitative High throughput Screen to Identify Chemical Modulators of PINK1 Expression; PINK1 immunofluorescence, high-content cytometry, 24 h; Potency, µM (top dose mostly 76.6 µM), for inactives: top-dose activation (PINK1 increase), most hits filed as activators; hit rate 0.2% among 410,000; AID 624263, 2012; active = well fitted activation curve with a large enough effect; inconclusive = small, poorly fitted or top-dose-only effect; inactive = flat fitted curve, though single readings scatter; cell line not stated here;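 note: potency is the fitted concentration of half-maximal effect; % of control where 0% means no effect; nearly all actives have a fitted effect of over 65% in size; a mitochondrial uncoupler was the plate control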
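Fluorescence from anti-PINK1 antibody, together with nuclear and cell stains, was scanned on a laser-scanning cytometer. Before staining, stable-line cells were incubated 24 hours with compounds at 5 concentrations; primary antibody 12 h at 10 degrees C.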
Six1-Eya2 inh: qHTS Assay for Inhibitors of the Six1/Eya2 Interaction | AlphaScreen GST-Six1/His-Eya2 binding, biochemical; stronger effect = lower value; control for the full effect not named in the record | activity change, % (test concentration not listed) | hit rate 0.56% among 360,000 | AID 651725, 2012; in the data active = activity change below about -65%; inconclusive = about -30% to -65%; inactive = above about -30%; note: % is set by controls: 0 for no effect and ±100 for the full control effect; compound concentration not given in the record
Target sequence (O00167 whole entry, looked up): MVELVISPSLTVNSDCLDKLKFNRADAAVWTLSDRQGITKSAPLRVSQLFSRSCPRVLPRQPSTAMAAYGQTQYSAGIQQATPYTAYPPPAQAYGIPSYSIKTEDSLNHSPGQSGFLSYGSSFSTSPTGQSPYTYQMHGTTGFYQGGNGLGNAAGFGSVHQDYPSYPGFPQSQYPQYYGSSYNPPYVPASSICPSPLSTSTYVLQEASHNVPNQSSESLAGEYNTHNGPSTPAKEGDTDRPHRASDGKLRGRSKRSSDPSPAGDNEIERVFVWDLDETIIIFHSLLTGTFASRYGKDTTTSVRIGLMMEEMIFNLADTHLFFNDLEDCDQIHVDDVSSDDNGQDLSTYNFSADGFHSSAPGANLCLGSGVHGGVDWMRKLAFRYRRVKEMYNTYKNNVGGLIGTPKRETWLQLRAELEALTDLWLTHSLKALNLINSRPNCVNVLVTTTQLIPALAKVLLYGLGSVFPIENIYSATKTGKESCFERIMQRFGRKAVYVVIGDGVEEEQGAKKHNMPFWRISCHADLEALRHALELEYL
Target sequence (Q15475 whole entry, looked up): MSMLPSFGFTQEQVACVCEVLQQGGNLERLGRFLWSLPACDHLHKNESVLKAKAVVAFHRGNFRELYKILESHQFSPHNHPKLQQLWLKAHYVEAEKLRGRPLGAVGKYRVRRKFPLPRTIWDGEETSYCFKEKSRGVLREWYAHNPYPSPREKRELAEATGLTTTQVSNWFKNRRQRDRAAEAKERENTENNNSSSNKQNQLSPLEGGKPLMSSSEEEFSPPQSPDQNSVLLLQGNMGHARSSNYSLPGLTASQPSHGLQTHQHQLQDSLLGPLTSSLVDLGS
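AlphaScreen with GST-Six1 and His-Eya2 (5X mix: 250 nM and 500 nM), glutathione donor and nickel acceptor beads; buffer 50 mM Tris pH 8.0, 300 mM NaCl, 1 mM TCEP; 1 h at 37 C in the dark.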
The depositor's hits bear a star; ? = inconclusive; nt = not tested or not shown; & = joins results of further samples; [ ] = another dose, or the depositor's remark.

Below each compound: D2 PAM	CtBP-E1A blk	Six1-Eya2 inh	D2 agonist	PINK1 modulator	Sfp inh	TRPV1 potentiator
[1] Cc1oc(-c2ccccc2F)nc1CN1CCC(C(=O)NC2CCCc3ccccc32)CC1 (stereo unspecified)
 : -1	-3	-6	-3.5	-3.4%	9%	-5
[2] Cc1cccc(C)c1CC(=O)N1CCOCC1
 : -4	5	11	-1.1	2.0%	8%	0
[3] O=C1OCCN1CCN(CN1C(=O)CCC1=O)CN1C(=O)CCC1=O
 : 5	1	1	-2.3	-4.3%	-4%	-1
[4] CCOc1ccccc1N1CCN(C(=O)Nc2ccc(F)c(Cl)c2)CC1
 : -19	7	4	-2.2	-1.2%	5%	-31
[5] COc1ccc(NS(=O)(=O)c2cccc(C(=O)NNC(=O)COc3ccccc3)c2)cc1
 : -20	-28	-5	2.6	-0.6%	nt	-6
[6] CCOc1ccc(CCNC(=O)COC(=O)c2cccc(OC)c2O)cc1OCC
 : -9	-10	5	-18	-0.2%	3%	5
[7] COc1cccc(/C=C/C(=O)OCC(=O)NCc2ccc3c(c2)OCO3)c1
 : -4	0	5	0.2	1.0%	nt	nt
[8] COc1ccccc1OCCNC(=O)CSC(=S)N1CCCC1
 : -29	6	7	4.8	1.1%	nt	6
[9] Cc1nc(Nc2ccc(C(=O)O)cc2)nc(Nc2ccc(C(=O)O)cc2)c1[N+](=O)[O-]
 : -12	nt	-75*	-2.0	-1.4%	14%	0
[10] CC(=O)N1N=C(c2cccs2)CC1c1cc2cc(C)ccc2nc1Cl (stereo unspecified)
 : -3	6	5	-0.9	5.0%	12%	-5
[11] O=C(O)CCC(=O)N1CC=C(c2ccccc2)CC1
 : -20	5	0	-1.1	-0.8%[38.3 µM]	10%	2
[12] Cc1cc(Cl)c(OCCCCN2CCOCC2)c(Br)c1
 : -18	-6	4	-3.7	7.5%	-37%	-6
[13] Cc1nc(Nc2nc(CSc3nc4ccccc4[nH]3)cc(=O)[nH]2)nc2ccccc12
 : 1	0	-18	14	10%	14%	20
[14] COCC(=O)n1nc(-c2ccc(C)cc2)nc1NCc1ccc(F)cc1
 : 2	1	2	-0.5	16%	14%	-17
[15] Cc1cccc(N=C2NC(=O)/C(=C/c3cccnc3)S2)c1
 : 0	nt	0	-3.2	0.1%	-3%	7
[16] COc1cc(CN2CCN(C(C)C)C(CCO)C2)ccc1OCc1ccccc1 (stereo unspecified)
 : -4	nt	1	2.9	0.6%	12%	-22
[17] Cc1cc(C([O-])=C(C(=S)Nc2ccccc2)[n+]2ccccc2)c(C)n1-c1ccccc1
 : -18	-19	-21	-4.1	1.1%	nt	nt
[18] CCOc1ccc(C(=O)NC(=S)Nc2ccccn2)cc1[N+](=O)[O-]
 : -1	-1	10	-2.2	15%	?	3
[19] COCC(C)N=Cc1c(O)[nH]c2ccccc12 (stereo unspecified)
 : 7	3	-2	0.4	nt	14%	21
[20] Cc1ccc(C(C#N)=Cc2ccc3c(c2)OCO3)cc1
 : -20	0	40	-4.8	7.5%	nt	nt
[21] O=C(c1ccc(Cl)c(S(=O)(=O)N2CCOCC2)c1)N1CCCCC1
 : -1	5	9	-0.8	-1.3%	18%	1
[22] Cc1ccc(NC(=O)CSc2nnc3ccccn23)cc1
 : -10	nt	3	0.2	1.1%	15%	6
[23] COc1cc(N)c(Cl)cc1C(=O)OCC(=O)NC(=O)NCc1ccco1
 : -25	-5	-2	0.6	6.6%	nt	nt
[24] CC(=O)c1cccc(CN2CCC(n3nccc3NC(=O)CCc3ccccc3)CC2)c1
 : -21	3	0	1.1	4.4%	4%	0
[25] CCN(CC)C(=O)CSc1nc2c(sc(=S)n2-c2ccccc2OC)c(=O)n1-c1ccccc1
 : -4	-2	-4	-0.1	1.4%	10%	-21
[26] C#CCOCCOCCOCCNc1nc(N2CCN(C(=O)[C@H](C(C)C)n3cc(CCO)nn3)CC2)nc(N2CCN(C(=O)[C@H](C)n3cc(CCCN=C(N)N)nn3)CC2)n1
 : 2	5	2	-3.4	-0.3%	nt	nt
[27] O=C1OCCN1C(=O)[C@H]1[C@H](c2ccccc2)C(c2cccc(Cl)c2)=NN1c1ccccc1
 : 2	45	52	1.0	0.1%	15%	nt
[28] Cc1ccc(OCCC(=O)OCC(=O)N2c3ccccc3CC2C)cc1 (stereo unspecified)
 : -1	10	14	0.5	-0.1%	0%	?
[29] O=C1CC(C(=O)Nc2cccc(Cl)c2)n2ncnc2N1 (stereo unspecified)
 : -3	-5	5	-0.4	-0.8%	20%	1
[30] CCOc1ccc(NC(=O)CN(C)C(=O)C2COc3ccccc3O2)cc1OCC (stereo unspecified)
 : -5	1	-4	1.2	-2.2%	nt	nt

3 structures out of the list, sorted by length of the SMILES, low to high:
Below each compound: D2 PAM	CtBP-E1A blk	Six1-Eya2 inh	D2 agonist	PINK1 modulator	Sfp inh	TRPV1 potentiator
[19] COCC(C)N=Cc1c(O)[nH]c2ccccc12 (stereo unspecified)
 : 7	3	-2	0.4	nt	14%	21
[4] CCOc1ccccc1N1CCN(C(=O)Nc2ccc(F)c(Cl)c2)CC1
 : -19	7	4	-2.2	-1.2%	5%	-31
[18] CCOc1ccc(C(=O)NC(=S)Nc2ccccn2)cc1[N+](=O)[O-]
 : -1	-1	10	-2.2	15%	?	3

Compounds shown so far containing fluorine, in the order listed:
Below each compound: D2 PAM	CtBP-E1A blk	Six1-Eya2 inh	D2 agonist	PINK1 modulator	Sfp inh	TRPV1 potentiator
[1] Cc1oc(-c2ccccc2F)nc1CN1CCC(C(=O)NC2CCCc3ccccc32)CC1 (stereo unspecified)
 : -1	-3	-6	-3.5	-3.4%	9%	-5
[4] CCOc1ccccc1N1CCN(C(=O)Nc2ccc(F)c(Cl)c2)CC1
 : -19	7	4	-2.2	-1.2%	5%	-31
[14] COCC(=O)n1nc(-c2ccc(C)cc2)nc1NCc1ccc(F)cc1
 : 2	1	2	-0.5	16%	14%	-17

Remaining list, next part
Below each compound: D2 PAM	CtBP-E1A blk	Six1-Eya2 inh	D2 agonist	PINK1 modulator	Sfp inh	TRPV1 potentiator
[31] COc1ccccc1CNCC(=O)Nc1ccc(C#N)cc1
 : -3	8	6	-0.5	-1.5%	-19%	15
[32] O=C(/C=C/C(=O)N1CCc2ccccc2C1)N1CCc2ccccc2C1
 : -4	nt	6	-8.2	1.1%	10%	-21
[33] CCn1c(CCNC(=O)c2cccs2)nnc1SCC(=O)Nc1ccc(Cl)cc1
 : -2	-2	-3	-0.9	0.4%	8%	1
[34] O=C(NCCc1nnc2ccc(NCC3CCCO3)nn12)c1ccccc1 (stereo unspecified)
 : 12	22	11	5.4	2.7%	22%	-8
[35] O=C(Nc1cccc2ccccc12)C1CCN(C(=O)Cc2ccccc2)CC1
 : -6	-1	-7	-1.8	-0.9%	2%	-3
[36] CCOC(=O)c1ccc(N2C(=O)CC(C(=O)OC)=C2C)cc1
 : -6	-1	-2	-0.6	-0.7%	-3%	-4
[37] CC(C)c1cccc(C(C)C)c1NC(=S)Nc1cccc(Cl)c1
 : -3	-7	-3	-2.6	?	25%	nt
[38] O=C(O)CCCC(=O)N1CCc2cc(S(=O)(=O)NCc3ccccc3)ccc21
 : -1	nt	20	-4.5	2.3%&3.4%	22%	-2
[39] OC1(c2ccccc2)CN(c2ccccc2)C2=[N+]1CCS2 (stereo unspecified)
 : -18	-17	-7	-1.5	3.6%	5%	23
[40] COc1ccc(-c2nn(Cc3ccccc3)cc2C(=O)N2CCN(c3ncccn3)CC2)cc1OC
 : -4	-2	4	-4.1	1.0%	nt	3
[41] CC(C)C[C@H](CO)Nc1nc(Nc2cccc(Cl)c2)c2ncn(C(C)C)c2n1
 : -39	-1	-10	-1.7	0.1%	-5%	-6
[42] CC(=O)NC(=S)Nc1ccc(NC(=S)NC(=O)c2cccs2)cc1
 : -10	5	2	-1.9	4.3%	7%	-3
[43] CCCc1[nH]nc2c1C(c1cn[nH]c1-c1ccc(F)cc1)C(C#N)=C(N)O2 (stereo unspecified)
 : -9	-1	0	-2.7	9.9%	-8%	-5
[44] O=C(Cc1ccccc1)Nc1ccc(Br)c(Cl)c1
 : -14	-11	5	0.3	-0.3%	?	-20
[45] Cc1nc(NC(=O)C2CC2)sc1C(=O)NC1CCCCC1
 : -7	0	2	-0.5	4.7%	16%	13
[46] COc1ccccc1N(CC(=O)N1CCC(C(N)=O)CC1)S(=O)(=O)c1ccccc1
 : -4	19	4	-2.9	5.4%	10%	3
[47] O=C(Nc1cccc(F)c1)N1CCc2nc(NCc3cccc(Oc4ccccc4)c3)ncc2C1
 : 0	-2	-8	11	1.3%	nt	nt
[48] CC(NC(=O)N1CCOCC1)c1ccccc1 (stereo unspecified)
 : 10	nt	4	-0.4	-0.1%	26%	3
[49] COC(=O)c1ccc(Cl)c(NC(=O)CN2CCN(C)CC2)c1
 : -13	5	4	-4.7	1.1%	-9%	-4
[50] COCCCN1C(=O)C(CC(=O)NCc2cccc3ccccc23)CC(C(=O)N2CCOCC2)=C1C (stereo unspecified)
 : -8	1	2	-5.5	2.5%	nt	nt
[51] Cc1cc(O)ccc1Nc1cc(-c2cccc(N(C)C)c2)ncn1
 : -10	6	-14	-2.1	0.5%	nt	nt
[52] O=C(OCC(=O)N1CCCC1)c1ccc(NS(=O)(=O)c2cccs2)cc1O
 : -4	17	11	-1.6	0.8%	-26%	1
[53] CCC(C)NC(=O)CCCc1ccccc1 (stereo unspecified)
 : -2	-15	-1	-3.6	1.1%	5%	2
[54] O=[N+]([O-])c1ccc(-c2ncc(-c3ccc(Br)cc3)o2)cc1
 : -6	-3	-2	1.0	3.6%	-8%	5
[55] CC(c1ccccc1)n1c(S(=O)(=O)O)nc2ccccc21 (stereo unspecified)
 : -7	nt	10	0.3	-0.3%	14%	2
[56] CCCSc1nnc(CNC(=O)C23CC4CC(CC(C4)C2)C3)n1Cc1ccccc1
 : -4	-13	-4	-2.2	0.4%	-11%	10

Copied from the list:
Entry for compound 2 in TRPV1 potentiator: 0
Entry for compound 16 in Sfp inh: 12%
Entry for compound 8 in Six1-Eya2 inh: 7
Entry for compound 27 in Sfp inh: 15%
Entry for compound 36 in TRPV1 potentiator: -4
